# Rce1 inhib – yeast Rce1p protease inhibitors, primary screen, biochemical, fluorescence, cell-free homogeneous; CAAX prenyl protease 2 (Saccharomyces cerevisiae (strain ATCC 204508 / S288c)), Q03530; yeast membranes, quenched prenylated peptide cleavage fluorescence; calls only; 290,000 compounds, 0.27% hits; AID 2563, 2010;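 active means fall in fluorescence gain of 50% or more versus controls, with final raw signal at or below 3038400; inconclusive means same 50% fall but final raw signal above 3038400; inactive means fall in fluorescence gain under 50%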;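 further: plate controls were neutral control wells for no effect and wells lacking membranes for full effect; tested at 10 µM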
# Target sequence (Q03530 whole entry, looked up): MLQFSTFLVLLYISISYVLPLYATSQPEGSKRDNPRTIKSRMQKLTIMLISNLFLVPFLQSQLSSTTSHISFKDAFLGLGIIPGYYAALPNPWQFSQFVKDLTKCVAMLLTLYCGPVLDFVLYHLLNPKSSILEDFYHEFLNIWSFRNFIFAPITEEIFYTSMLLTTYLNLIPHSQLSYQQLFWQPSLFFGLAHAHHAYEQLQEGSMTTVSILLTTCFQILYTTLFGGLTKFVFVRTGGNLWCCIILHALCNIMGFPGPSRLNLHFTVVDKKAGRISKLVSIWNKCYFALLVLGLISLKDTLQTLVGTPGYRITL
# PABP polyA inh – PABP poly(A) RNA binding inhibitors, primary screen, biochemical, fluorescence polarization, uHTS; inhibition, % at 35 µM; 290,000 compounds, 1% hits; AID 2014, 2009; Polyadenylate-binding protein 1 (Homo sapiens), P11940;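 active means 50% or more with normal probe brightness, or confirmed in later tests; inconclusive means above 50% with abnormal brightness, or retests that disagree; inactive means below 50% or failed in later tests; about a fifth of its hits are not listed in these tables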;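 further: calls also rest on retests at 20 µM and on dose response follow-up; controls were probe without protein and protein plus probe with vehicle; some compounds called inactive have numbers as strong as hits; many hits fall short of the cut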
# Env fusion inh – inhibitors of HIV-1 Env-driven cell-cell fusion, primary screen, HeLa-JRFL effector, CEM21 target cells, luciferase. AID 651610, 2012. 360,000 compounds, 1.1% hits. inhibition, % at 12.3 µM;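 active means mean replicate inhibition score of at least 50 and every replicate individually at or above 50; inconclusive means only one of the two criteria met; inactive means mean below 50 and not all replicates reaching 50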;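 further: 0% = plate neutral controls and 100% = maraviroc near 300 nM; one replicate is shown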
# eIF4H inh – human eIF4H binding inhibitors, primary screen, translation initiation inhibitor project, biochemical, uHTS, fluorescence polarization; eIF4H fluorescence polarization binding assay; inhibition, % at 35 µM; 290,000 compounds, 0.94% hits; AID 2012, 2009;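 active means 50% or more with normal probe brightness, or confirmed in later tests; inconclusive means above 50% with abnormal brightness, or retests that disagree; inactive means below 50% or failed in later tests; about a fifth of its hits are not listed in these tables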;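 further: calls also rest on retests at 20 µM and on dose response follow-up; 0% = protein and probe with vehicle and 100% = probe without protein; strong numbers were not always called active; many hits fall short of the cut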
# MT1-MMP act inh – blockers of MT1-MMP proenzyme processing, primary screen, HT1080 RFP-PRO-GFP cells, GFP/RFP fluorescence; AID 651647, 2012; GFP/RFP ratio fluorescence, overnight; percent of plate control window, DMSO zero; GFP/RFP ratio change, % at 20 µM; Matrix metalloproteinase-14 (Homo sapiens), P50281; 360,000 compounds, 0.061% hits;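 active means GFP/RFP ratio change of at least 30% with cell ATP level not reduced by more than half and red fluorescence within 50% of control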; further: strong numbers were not always called active
#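 Assay system – RFP-PRO-GFP reporter HT1080 cells · Compound dosing – single dose of 20 µM compound, 1% DMSO final · Incubation – overnight compound exposure at 37 °C · Measure – GFP/RFP fluorescence ratio · Benchmarks – DMSO wells and RFP-L50D-GFP cells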
# UUG fidelity – modulators of yeast start codon fidelity, primary screen, whole organism, S. cerevisiae, single point, plate reader; activity score, % at 18.7 µM; S. cerevisiae UUG-firefly luciferase reporter, luminescence/redox ratio; 350,000 compounds, 0.13% hits; AID 602363, 2012;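 active means replicate mean at a twofold rise or more, about +100% in these data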;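 further: firefly luciferase made from a UUG start codon reports start codon fidelity; reporter light over untreated wells divided by growth signal over untreated wells; some hits fall short of that in this replicate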
# CSC inhib – cancer stem cell viability inhibitors, primary screen, luminescence; cancer stem cell-like cells viability; inhibition, % at 7.5 µM; 300,000 compounds, 1.1% hits;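 active means mean at 75% or more and at least half the replicates too; inconclusive means mean and replicates disagree; tested in HMLE shEcad cells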;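 further: 0% = median of negative and 100% = median of positive control wells; the first replicate is given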
# eIF4H inh retest – further read-out of eIF4H inh, marked with its call; inhibition, %; compound at 20 µM; confirmation average;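 mean of two retest wells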
# PABP polyA inh retest – second read-out of PABP polyA inh, no call of its own (marks repeat the call); inhibition, %; compound at 20 µM; confirmation repeats;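 mean of two retest wells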
# MT1-MMP act inh RFP – recorded beside MT1-MMP act inh, whose call it bears; RFP signal change, %; measured here: RFP expression control read;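 0 = vehicle wells; hits needed this value within 50% of zero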
# * marks the source's active call; other numbers are inactive results; i = inactive; ? = inconclusive; · = no result given; + = active, no number.
# The opening 2 records (preview)
SMILES,Rce1 inhib,PABP polyA inh,Env fusion inh,eIF4H inh,MT1-MMP act inh,MT1-MMP act inh RFP,UUG fidelity,CSC inhib,others
CCn1cc(C(=O)OCC(=O)N2C(C)CCCC2C)c(=O)c2ccc(C)nc21 (stereo unspecified),i,-2,-9,-2,3,0,-4,-12,
O=C(Cc1ccc(NC(=O)C2CCCN(C(=O)C3CC3)C2)cc1)Nc1ccc(C(=O)N2CCOCC2)cc1 (stereo unspecified),·,·,10,·,4,5,-9,·,

# This part in full, previewed entries included:
SMILES,Rce1 inhib,PABP polyA inh,Env fusion inh,eIF4H inh,MT1-MMP act inh,MT1-MMP act inh RFP,UUG fidelity,CSC inhib,others
CCn1cc(C(=O)OCC(=O)N2C(C)CCCC2C)c(=O)c2ccc(C)nc21 (stereo unspecified),i,-2,-9,-2,3,0,-4,-12,
O=C(Cc1ccc(NC(=O)C2CCCN(C(=O)C3CC3)C2)cc1)Nc1ccc(C(=O)N2CCOCC2)cc1 (stereo unspecified),·,·,10,·,4,5,-9,·,
CSc1ccc(CN(C)CC(=O)Nc2cccc(Br)c2)cc1,i,-15,17,-1,2,-2,-21,3,
CC1CCCC(C)N1/N=C/c1ccccc1C(=O)O (stereo unspecified),i,7,4,-3,1,3,·,-3,
COc1ccc(NC(=O)CN(C)C(=O)c2ccc(C)c(S(=O)(=O)N3CCCCC3)c2)cc1,·,·,10,·,1,2,-6,·,
O=S(=O)(c1cccc(F)c1)N1CCN(Cc2cc3c(cc2Br)OCCO3)CC1,·,·,4,·,-1,-3,-8,·,
COc1ccc(OC)c(NC(=O)CCN2CCCCC2)c1,i,-3,-48,-7,-3,-4,1,-1,
COc1cccc(NC(=O)COC(=O)c2ccc(S(=O)(=O)NCc3ccco3)cc2)c1,i,21,-18,21,-5,7,-7,-2,
Cc1nn(C(C)C(=O)NCc2ccco2)c(C)c1[N+](=O)[O-] (stereo unspecified),i,2,4,-13,0,1,·,-3,
COc1ccc(-c2nnc(SCC(=O)c3ccc(O)cc3O)o2)cc1,i,18,-23,-12,1,1,-17,14,
CO/N=C/c1cccn1-c1nccc(N(C)C)c1C#N,i,-6,11,-14,3,3,·,1,
COc1ccc(-c2csc(C(C)(O)c3ccc(F)c(F)c3)n2)cc1 (stereo unspecified),·,·,28,·,0,-3,-15,·,
COc1cccc(N(CC(=O)Nc2cccc(N(C)S(C)(=O)=O)c2)S(C)(=O)=O)c1,i,0,·,-6,-3,-1,-14,2,
O=C(CN1CCN(CCN2C(=O)c3cccc4cccc(c34)C2=O)CC1)c1ccc(F)cc1,i,-6,-156,-15,-5,-2,·,0,
CN(Cc1ccn[nH]1)C(=O)C1CCC(=O)N(Cc2cccc(C(F)(F)F)c2)C1 (stereo unspecified),i,2,7,-11,1,2,-2,·,
CC(Sc1ccc2c(c1)OCCO2)C(=O)Nc1ncc(Cl)cc1Cl (stereo unspecified),i,0,·,3,-1,-1,-12,-5,
c1ccc(C2CC3CC(c4ccccc4)N2O3)cc1 (stereo unspecified),i,·,·,·,-5,5,-13,1,
CC(C)(C)c1ccc(OCCCC(=O)NC2=NCCS2)cc1,i,5,4,2,6,1,-6,16,
Cc1cc(NC(=O)C(C)SCC(=O)N(C)Cc2ccccc2F)no1 (stereo unspecified),·,·,·,·,-1,3,-13,17,
CCc1nn(C(C)C(=O)Nc2cccc(C)c2C)c(=O)c2cc3occc3n12 (stereo unspecified),i,4,·,-5,-1,-10,-4,0,
COc1ccc(CCNC(=O)c2nnc(Cc3ccc(Cl)cc3)o2)cc1OC,i,-4,11,-4,-4,-5,-16,16,
O=C(NCCCN1CCc2ccccc2C1)C1CCN(c2nnc(-n3cccc3)s2)CC1,i,-18,-5,4,2,0,-1,-22,
O=C1c2ccccc2S(=O)(=O)N1CC(O)COc1ccc(Cl)cc1 (stereo unspecified),i,6,-12,-8,5,2,16,1,
COc1ccc(CCNS(=O)(=O)c2ccc(Cl)s2)cc1OC,i,-7,·,-6,6,4,-6,-12,
Cc1ccc(OCC(=O)Nc2nnc(S(=O)(=O)N3CCCCCC3)s2)cc1,i,3,6,66*,0,3,-9,10,eIF4H inh retest=80*;PABP polyA inh retest=8
O=C(O)CCNC(=O)/C(=C/c1ccco1)NC(=O)c1ccco1,i,10,-15,20,-1,3,-13,-10,
Cc1ccc(C)c(N(CC(=O)NCCc2ccccc2)C(=O)CCC(=O)Nc2ccccn2)c1,i,10,-9,-9,0,1,-8,·,
O=S(=O)(c1ccccc1)N(CC1CO1)c1cccc2ccccc12 (stereo unspecified),i,-8,-6,8,2,2,·,-6,
CN(C)C(=O)CSc1nc(-c2ccccc2)c(-c2ccccc2)o1,i,6,22,-10,0,-6,-2,-7,
CCN(CC)S(=O)(=O)c1ccc(C)c(NC(=O)/C=C/c2cccs2)c1,i,-17,12,-2,-3,-11,0,17,
O=c1[nH]c2cc(Cl)ccc2c(O)c1-c1cccc(Oc2ccccc2)c1,i,·,-12,·,-2,0,-16,4,
COC(=O)CCN(C1CCCCC1)S(=O)(=O)c1ccc(S(=O)(=O)N2CCCCC2)cc1,i,-10,·,-4,-2,-3,-13,10,
COc1cccc(CC(C(=O)Nc2cc(C)ccc2C)c2nn[nH]n2)c1OC (stereo unspecified),i,4,-43,1,-3,-5,-5,-4,
Cc1noc(C)c1NC(=O)N1CCN(Cc2ccccc2)CC1,i,27,4,20,1,5,·,-11,
CN(Cc1nc(-c2cccs2)no1)CC(O)c1ccccc1 (stereo unspecified),i,-6,-22,1,1,1,-5,-2,
O=C1c2ccccc2C(=O)N1CCCCn1c(=O)oc2ccccc21,i,1,·,-4,3,3,-16,2,
O=S(=O)(c1ccc(Cl)cc1)N1CCC(N2CCOCC2)CC1,i,2,-52,-1,-13,-28,-8,-1,
Cc1nc2ccccc2n2c(O)c(CC(=O)O)cc12,i,19,·,12,-198,32,-11,-7,
CC(NC(=O)c1ccc(NC(=O)CC2SC(N3CCCC3)=NC2=O)cc1)c1ccc(S(N)(=O)=O)cc1 (stereo unspecified),i,·,0,·,2,3,·,-7,
Cc1ccc(N(C(=O)c2nsc(Cl)c2Cl)C(C(=O)NC2CCCC2)c2ccc(O)cc2)cc1C (stereo unspecified),i,8,·,0,-28,-29,·,-9,
CCn1c(SCCOc2ccc(OC)cc2)nnc1C(CO)NC(=O)c1ccc(OC)cc1 (stereo unspecified),i,35,·,-2,5,0,-13,4,
O=c1ccc2c(-c3ccccc3)c3ccc(O)cc3oc-2c1,i,?,16,?,-31,58,-13,11,
Cn1c(=O)c2cc(S(=O)(=O)NC(C(=O)N3CCCCCC3)c3ccccc3)ccc2n(C)c1=O (stereo unspecified),·,8,11,-4,-2,-1,-15,-7,
COc1ccc(NC(=O)Nc2nnc([C@@H]3C[C@H](O)[C@@H](CO)O3)s2)cc1,·,·,11,·,-5,2,-25,·,
CNC(=O)[C@@]1(Cc2ccccc2)C=C[C@@H](C)N1C(=O)OC,i,·,2,·,-4,-1,3,-10,
COc1ccc2c(c1)nc(NCCO)n2C,i,-1,·,-5,2,2,·,13,
COCCn1c(SCC(=O)N2CCCC2=O)nc2sc(C)c(C)c2c1=O,i,·,-3,·,4,3,15,0,
O=C(Nc1ccc(Cl)cc1)c1ccc(CN2CCc3ccccc3C2)cc1,i,-8,-18,0,-6,-31,-10,-5,
Cn1cc(SCC(=O)N2CCN(c3ccccc3)CC2)c2ccccc21,i,-8,·,-16,-2,3,-30,-11,
O=C(/C=C\c1cn(-c2ccccc2)nc1-c1cccs1)N1CCOCC1,i,-2,10,-1,5,-3,9,17,
COc1ccc(-n2nc([N+](=O)[O-])c(=NCCc3ccc(C)cc3)n2O)cc1,i,-4,16,-15,-4,0,·,·,
CCc1ccc(C2CC(c3ccccc3C)n3nc(N)nc3N2)cc1 (stereo unspecified),i,-22,6,2,3,5,-18,-36,
CCN(CC)S(=O)(=O)c1cc(C(=O)OCC(=O)Nc2cccc(S(=O)(=O)N(C)C)c2)ccc1F,i,-2,-32,0,1,2,·,-2,
Cc1cccc(NS(=O)(=O)c2cccc(C(=O)NCCCN3CCOCC3)c2)c1,i,·,0,·,0,0,·,6,
CCOc1cccc(C2C(C(=O)c3ccc(C)o3)=C(O)C(=O)N2c2nnc(C)s2)c1 (stereo unspecified),·,·,-6,·,2,7,0,·,
CCCCNC(=O)OC1CCS(=O)(=O)C1 (stereo unspecified),i,-2,·,-11,4,0,-17,-6,
N#CC[n+]1cc(-c2ccc(Cl)cc2)n2c1CCC2,i,-1,-18,4,9,11,-10,4,
COc1cc(-c2nc3ccccn3c2/N=C/c2ccccc2)ccc1O,+,-4,·,-2,15,9,-5,-25,
CN(Cc1ccccc1)C(=O)COc1cccnc1[N+](=O)[O-],i,-10,8,-9,1,2,-10,-10,
O=C(NNC(=S)Nc1ccccc1)c1cccs1,i,0,·,7,-4,-5,-21,-9,

# (further entries)
SMILES,Rce1 inhib,PABP polyA inh,Env fusion inh,eIF4H inh,MT1-MMP act inh,MT1-MMP act inh RFP,UUG fidelity,CSC inhib,others
Fc1cccc(NC(=S)N2CCCCC2)c1,i,2,·,-4,-1,-1,-4,-9,
CCSc1nc2ccccc2n1CC(=O)N1CCCCC1,i,-6,·,0,1,-2,-2,·,
COC(=O)c1ccc(N(C(=O)c2ccco2)C(C(=O)NC2CCCC2)c2ccco2)cc1 (stereo unspecified),i,0,-77,3,-4,-9,18,-6,
COc1ccccc1NC(=O)Cn1cnc2c(cnn2-c2ccc(C)c(C)c2)c1=O,i,-8,·,-2,7,-1,1,-2,
O=C(N[C@@H]1CCC(=O)N(CC[C@H](Sc2ccccc2)c2ccccc2)CC1)OCc1ccccc1,i,-1,-3,-8,1,-7,-13,3,
COc1ccc(-c2nc3c(-c4ccc(F)cc4)cnn3cc2C)cc1F,i,-1,-7,-11,5,-4,-4,7,
COc1ccc(NC(=O)CCN2CCN(Cc3ccccc3)CC2)c(OC)c1,i,-7,21,4,-3,-1,-7,12,
CCN(CC)S(=O)(=O)c1ccc(Cl)c(C(=O)NC2CCCC2)c1,i,-3,·,-3,4,-2,16,-5,
O=C(CNC(=O)c1ccc(Br)o1)NCc1cccc(Cl)c1,i,0,1,7,2,1,6,-1,
O=C(C1CCN(Cc2ccc(OCc3ccccc3)cc2)CC1)N1CCCC1,·,5,-11,-1,2,3,-2,-7,
O=C(O)C(C/C(=N/O)c1ccc(Br)cc1)P(=O)(c1ccccc1)c1ccccc1 (stereo unspecified),i,13,25,-10,-1,4,-7,9,
CC12C=CC3(O1)C(C(=O)N(c1ccccc1)C3C(=O)NC1CCCC1)C2C(N)=O (stereo unspecified),i,11,-24,-1,1,8,-12,·,
CC(=C/c1ccc(C(C)C)cc1)/C=N/NC(=O)Cn1nc(C)cc1C,i,57,4,-8,-1,-3,·,-3,eIF4H inh retest=-12;PABP polyA inh retest=6
S=c1sc2ccccc2n1CCc1ccncc1,i,·,-12,·,-13,-4,-18,-1,
